# Screens deposited in PubChem by Fisher Drug Discovery Resource Center.
# NPYLR7 agonist = mosquito NPYLR7 agonism. AID 1259423. 0.15% of 270,000 active. activation, % at 10 µM. HEK293T NPYLR7/Galpha15, GCaMP6s calcium fluorescence; in the data active = activation above about 40%;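 also: 0% = vehicle and 100% = reference agonist at the receptor; some compounds past the cut are filed as inactive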
# NPYLR7 agonist max-min = further read-out of NPYLR7 agonist, marked with its call; activation, %; measured here: Max-Min RFU normalised activation; some inactives read as strong as hits;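 span of the calcium signal over five minutes; 0% = vehicle and 100% = native peptide agonist; compound fluorescence can raise it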
# Starred values were filed as active, the others as inactive; & = joins results of further samples. The list is partial; the hit share may differ from the screen's.
SMILES,NPYLR7 agonist,NPYLR7 agonist max-min
CCOC(=O)C1(Cc2cccc(F)c2)CCN(Cc2nc(CC)[nH]c2C)CC1,28&6,14&0
O=C(O)C1COC2(CCN(C(=O)c3ccc(F)cc3F)CC2)N1C(=O)c1ccco1 (stereo not drawn),11,13
Cc1c(CNC(=O)c2ccccc2Cc2ccc(Cl)cc2)cnn1C,1,-1
COc1cc(CN2CCC(C(=O)NC(c3ccccn3)c3ccccc3OC)CC2)cc(OC)c1 (stereo not drawn),-8,-4
O=C(NCC(F)(F)F)N1CCN(Cc2cn3ccccc3n2)CC1,2,2
COc1ccc(CN2C3CCC2CC(NC(=O)c2cc(C(F)(F)F)cc(C(F)(F)F)c2)C3)c(OC)c1 (stereo not drawn),9,7
O=c1c2ccccc2nc2n1CCc1c-2[nH]c2ccccc12,1,5
CN(CCCN1CCCCC1)C(=O)c1ccc2c(=O)n(C)cnc2c1,19,9
Cc1ccc(-n2c(SCc3ccc(C(F)(F)F)cc3)nnc2-c2ccco2)cc1,-1,8
O=[N+]([O-])c1cc(/C=N\Nc2cc(N3CCOCC3)nc(N3CCOCC3)n2)cc2c1OCO2,-4,-9
CC(C)N1CCN(Cc2cn[nH]c2C2CCCCC2)CC1CCO (stereo not drawn),-4,-2
Cc1cc2c(cc1Br)C(O)(C(F)(F)F)C(=O)N2 (stereo not drawn),11,9
O=C(c1ccccc1)C1CCCN(C(=O)c2cn(CCCc3ccccc3)nn2)C1 (stereo not drawn),15,3
CCCCn1c(CN2CCC(Cc3ccc(F)cc3)CC2)cnc1S(=O)(=O)CC,8,5
CCN(CC(=O)Nc1c(Cl)cccc1Cl)C(=O)Cn1nc(C)c([N+](=O)[O-])c1C,1,14
Cc1c(Br)cccc1C(=O)NCCCc1n[nH]c(=O)[nH]1,0,0
CCS(=O)(=O)N1CCN(c2nc(C)nc(COC)c2Cc2ccc(Cl)cc2)CC1,4,13
CN(C)CCNC(=O)C(C#N)=Cc1cn(-c2ccccc2)nc1-c1ccccc1,-1,-2
CN1CCN(CC(NC(=O)c2ccc(F)cc2)c2ccccc2)CC1 (stereo not drawn),0,0
Cc1cccc(C2CCCCN2c2nccc(C(F)(F)F)n2)c1C (stereo not drawn),-6,-7
O=C(NC1(c2nnn(CC3CCCO3)n2)CCCC1)c1ccccc1 (stereo not drawn),9&-3,8&-3
COC(=O)CC(NC(=O)CNC(=O)c1ccco1)c1ccccc1 (stereo not drawn),1,-1
NCC(=O)NC1CC1,-3,-7
CCOC(=O)C1(C)CCCCN1C(=O)c1cc(F)cc(F)c1 (stereo not drawn),1,-1
C[C@H]1C(NC(=O)c2cccnc2Nc2cccc(Cl)c2)C[C@@H]2C[C@H]1C2(C)C (stereo partly drawn),-8,-16
O=C(NC(n1cnc2c(N3CCOCC3)ncnc21)C(Cl)(Cl)Cl)c1ccccc1 (stereo not drawn),0,9
Cc1cc(C)n(C(=O)C(C)n2cc([N+](=O)[O-])cn2)n1 (stereo not drawn),-1,-6
Cn1c(=O)n(CCN2CCOCC2)c(=O)c2c1nc1n(-c3ccc(F)cc3)c(-c3ccccc3)cn21,0,23
CSc1ncc(CNC(C)CCc2ccccc2)c(N2CCN(c3ccccc3F)CC2)n1 (stereo not drawn),5,2
CN(C)CCCNS(=O)(=O)c1ccc(F)cc1,1,2

# Profiles from above:
# C[C@H]1C(NC(=O)c2cccnc2Nc2cccc(Cl)c2)C[C@@H]2C[C@H]1C2(C)C (stereo partly drawn) across the screens: NPYLR7 agonist: -8; NPYLR7 agonist max-min: -16
# Cn1c(=O)n(CCN2CCOCC2)c(=O)c2c1nc1n(-c3ccc(F)cc3)c(-c3ccccc3)cn21 across the screens: NPYLR7 agonist: 0; NPYLR7 agonist max-min: 23

# Next part:
SMILES,NPYLR7 agonist,NPYLR7 agonist max-min
CCc1cc(C(=O)N2Cc3cnc(CC(C)C)nc3C2)cs1,1,-3
CS(=O)(=O)N1CCC(NCCc2cnn(-c3ccccc3)c2)CC1,-4,-6
CCCN(Cc1ccc(C(C)(C)O)o1)Cc1ccc(C)s1,-3,3
COc1ccc(C(NC(=O)C2CCN(CCOc3ccc(Cl)cc3Cl)CC2)c2ccccc2C)cn1 (stereo not drawn),-1,-8
COc1ccc2oc(C(=O)Nc3cc([N+](=O)[O-])ccc3F)c(C)c2c1,-1,3
CCOCCn1cnc(-c2ccccc2)c1-c1c(CC)nn(C)c1Cl,8,-1
CCCCN(C)S(=O)(=O)c1cc(-c2nnc3c4ccccc4c(C)nn23)ccc1OC,-21,-25
CCn1nc(C)c(NCc2cc(C)c(OC)c(C)c2)c1C,8,6
Cc1cccc(N2CCN(C(=O)Nc3ccccc3OC(C)C)CC2)c1,0&-1,-3&-2
CCNS(=O)(=O)c1c[nH]c(=O)[nH]c1=O,-9,-14
CCC(C(=O)N1CCCn2nc(C)cc2C1)n1cc(C(C)=O)c2ccccc21 (stereo not drawn),-2,-3
O=C(CCCN1C(=O)c2cccc3cccc(c23)C1=O)NO,2,-3
c1ccc2c(NCC3CCCN3)cccc2c1 (stereo not drawn),-4,-4
CCOc1nc(N(C)C)nc(-n2nnc(C(C)=O)c2C)n1,-4,-7
CCOc1ccc(NC(=O)Cc2ccc(Cl)cc2Cl)cc1S(=O)(=O)N(C)C,1,-2
COc1ccc(C(=O)N2CCC2(C)C(=O)NC(C)C)cc1OC (stereo not drawn),-1,-4
Cc1cccc(C(=O)N2C(C(=O)NCc3cccnc3)COC23CCN(C(=O)c2ccc(F)cc2)CC3)c1 (stereo not drawn),3,23
COc1ccc(C2Nc3ccccc3-c3nc4ccccc4n32)cc1O (stereo not drawn),1,0
c1ccc2oc(-c3csc(N4CCCC4)n3)cc2c1,1,15
O=C1/C(=C\c2ccsc2)CCOc2ccc(F)cc21,8,3
CC(C)Cn1c(CN(C)CC2(N3CCCCC3)CCCCC2)cnc1S(C)(=O)=O,1,-1
CC(C)c1[nH]n(-c2ccc(Cl)c(Cl)c2)c(=O)c1C1=C([n+]2ccccc2)C(=O)N(c2ccc3c(c2)OCO3)C1=O,7,10
Cc1oc(C(C)(C)C)cc1C(=O)N[C@H](Cc1ccccc1)C(=O)N1CCC(C(=O)N2CCCCC2)CC1,-5,4
CC(NC(=O)c1csc(COc2ccc([N+](=O)[O-])cc2)n1)c1ccccc1 (stereo not drawn),26,35
COC(=O)C1C(=O)C2=C(CC1C)NC(C)=C(C(=O)OCCOC(C)C)C2c1ccc(C)o1 (stereo not drawn),-1,-4
Cc1ncccc1Oc1ccc2c(-c3ccccc3F)noc2n1,17,18
CC(C)(C)Nc1c(Cc2ccccc2)nc2ccc(Cl)cn12,17,19
Cc1nn(CC(=O)N2CC3(C)CC2CC(C)(C)C3)c(C)c1[N+](=O)[O-] (stereo not drawn),2,16
CC1C=CCC2C(=O)N(c3ccc(F)c(Cl)c3)C(=O)C12 (stereo not drawn),6,7
CN1CCN(C(CC(=O)Nc2ccccc2C#N)C(=O)O)CC1 (stereo not drawn),3,2
CNC(=O)c1ccc(CN(Cc2ccco2)C(=O)Cn2ccccc2=O)cc1,10,6
Cc1ccc(F)c(CN(C)Cc2ncc[nH]2)c1Cl,6,3
CCCN(CC(=O)Nc1cc(-c2ccccc2)nn1-c1ccccc1Cl)C(=O)c1ccc(OC)cc1,7,5
COC(=O)CN(n1cnnc1)S(=O)(=O)c1ccc(C)cc1,8,7
Cn1ccnc1CN1CCCC(CCC(=O)NCc2ccccc2Cl)C1 (stereo not drawn),18,14
C=CCOc1ccccc1CN(C(=O)CCl)c1ccc2c(c1)OCCO2,0,-1
Cc1cc(C)c(C#N)c(SCC(=O)c2ccc(Br)cc2)n1,0,-2
COc1cccc(Cn2ccn3nc(-c4ccc(C)c(C)c4)cc3c2=O)c1,-3,-2
CCN(CC)C(=O)Oc1ccc2c(ccn2Cc2cccc(F)c2)c1NC(=O)C(OC(C)=O)c1ccccc1 (stereo not drawn),-3,-12
O=C(CCc1ccccc1)N1CCCN(c2cc(Oc3ccc(F)c(Cl)c3)ncn2)CC1,-10,3
OCCNc1nccc2[nH]c(-c3cccc(F)c3)nc12,-6,-11
COc1ccc(C(=O)CSc2nccn(-c3ccc(C)cc3)c2=O)cc1,31,19
COc1cccc2c1C(=O)c1c(O)c3c(c(O)c1C2=O)C[C@@](O)(C(C)=O)C[C@@H]3O[C@H]1C[C@H](N)[C@H](O)[C@H](C)O1,-2&14,-6&10
O=C(c1nc2ccccn2c1CNC(CCn1ccnc1)c1ccccc1)N1CCCC1 (stereo not drawn),11,12
Cc1cccc(C(=O)NNC(=O)c2ccoc2C)n1,2,3
CCCc1cnc(C)nc1-c1c(F)cccc1OC,-2,-7
O=C(Nc1ccccc1)c1ccc(Cn2cc(Br)ccc2=O)cc1,3,0
CCOC(=O)c1cc(C(C)(C)C)n(C2CCN(C(=O)c3ccccc3C(F)(F)F)CC2)n1,18,8
CN(Cc1ccccc1)C1(CNC(=O)Cc2cccs2)Cc2ccccc2C1,9,1
CCCCc1ccc(-c2ccc(-n3cncc3C(=O)NC3CCC[C@H]3OCc3ccccc3)cc2)cc1 (stereo partly drawn),8,2
O=S(=O)(Nc1nc2ccccc2s1)c1ccc(Br)s1,-2,-3
CCc1nc2ccc(C(=O)Nc3cc(-c4ccccc4)ccc3OC)cn2c1N(C)C(=O)C1CCCCC1,-7,-11
Cc1ccc2oc(CN(Cc3ccccc3Cl)C(=O)C3C[C@@H]3c3ccccc3)nc2c1 (stereo partly drawn),-4,-11
CSCCCN(C)S(=O)(=O)c1ccccc1Br,0,-2
Cc1nccc(CNc2ccccc2S(=O)(=O)C(F)(F)F)n1,0,-3
Cc1cc(Cl)c(C(C)C)cc1OCc1nc(N)nc(N)n1,11,5
Cc1ccc(C(C)C)cc1OCCCNCCN(C)C,5,4
CNC(=O)[C@@H]1C[C@H](N)CN1C(=O)CC1CCN(Cc2ccccc2)CC1,-5,7
Cc1nc(N2CCN(C(=O)c3sc(-c4ccccc4)nc3C)CC2)cc(-n2cccn2)n1,-5,-11
COc1ccc(-n2cnn(CN3CCCC(C)C3)c2=S)cc1 (stereo not drawn),3,3

# An excerpt taken from the entries so far, as a working copy:
SMILES,NPYLR7 agonist,NPYLR7 agonist max-min
COc1ccc(C(=O)CSc2nccn(-c3ccc(C)cc3)c2=O)cc1,31,19
COc1cccc2c1C(=O)c1c(O)c3c(c(O)c1C2=O)C[C@@](O)(C(C)=O)C[C@@H]3O[C@H]1C[C@H](N)[C@H](O)[C@H](C)O1,-2&14,-6&10
O=C(c1nc2ccccn2c1CNC(CCn1ccnc1)c1ccccc1)N1CCCC1 (stereo not drawn),11,12
Cc1cccc(C(=O)NNC(=O)c2ccoc2C)n1,2,3
CCCc1cnc(C)nc1-c1c(F)cccc1OC,-2,-7
O=C(Nc1ccccc1)c1ccc(Cn2cc(Br)ccc2=O)cc1,3,0
CCOC(=O)c1cc(C(C)(C)C)n(C2CCN(C(=O)c3ccccc3C(F)(F)F)CC2)n1,18,8
CN(Cc1ccccc1)C1(CNC(=O)Cc2cccs2)Cc2ccccc2C1,9,1
CCCCc1ccc(-c2ccc(-n3cncc3C(=O)NC3CCC[C@H]3OCc3ccccc3)cc2)cc1 (stereo partly drawn),8,2
O=S(=O)(Nc1nc2ccccc2s1)c1ccc(Br)s1,-2,-3
CCc1nc2ccc(C(=O)Nc3cc(-c4ccccc4)ccc3OC)cn2c1N(C)C(=O)C1CCCCC1,-7,-11
Cc1ccc2oc(CN(Cc3ccccc3Cl)C(=O)C3C[C@@H]3c3ccccc3)nc2c1 (stereo partly drawn),-4,-11
CSCCCN(C)S(=O)(=O)c1ccccc1Br,0,-2
Cc1nccc(CNc2ccccc2S(=O)(=O)C(F)(F)F)n1,0,-3
Cc1cc(Cl)c(C(C)C)cc1OCc1nc(N)nc(N)n1,11,5
Cc1ccc(C(C)C)cc1OCCCNCCN(C)C,5,4
CNC(=O)[C@@H]1C[C@H](N)CN1C(=O)CC1CCN(Cc2ccccc2)CC1,-5,7
Cc1nc(N2CCN(C(=O)c3sc(-c4ccccc4)nc3C)CC2)cc(-n2cccn2)n1,-5,-11
COc1ccc(-n2cnn(CN3CCCC(C)C3)c2=S)cc1 (stereo not drawn),3,3

# Next entries follow.
SMILES,NPYLR7 agonist,NPYLR7 agonist max-min
CCn1nc(C)c(CN(C)Cc2nc(-c3ccccc3NC(=O)c3ccsc3)oc2C)c1C,6,0
COCCNC(=O)CSc1nc(Cl)cc(N2CCN(C(C)=O)C(C)C2)n1 (stereo not drawn),-2,4
Cc1ccc(CNC(=O)NC(c2ccc3c(c2)OCCCO3)C(C)C)cc1F (stereo not drawn),47*,47*
COc1nc(-c2ccccc2)cc(-c2ccc(Cl)cc2)c1C#N,-5,-9
Cc1cccc(CN2C(=O)C3(c4ccccc42)N(c2cccc(F)c2)C(=O)CS3(=O)=O)c1 (stereo not drawn),4,1
c1ccc(-c2nc(CN3CCC4(CCCN(CC5CCC5)C4)C3)co2)cc1 (stereo not drawn),4,2
COc1ccc(NC(=O)N2CCC3(CC2)NC(=O)c2cccc(C)c2N3)cc1,16,12
COCCN(Cc1ccc(OC)c(OS(=O)(=O)c2cccc(C(F)(F)F)c2)c1)C(=O)C12CC3CC(CC(C3)C1)C2,-1,9
FC(F)(F)c1cc(-n2c(C3C4CCCCC43)n[nH]c2=S)cc(C(F)(F)F)c1 (stereo not drawn),2,-3
Oc1ccc(-c2cnc3c(Nc4cccc(OC(F)(F)C(F)F)c4)nccn23)cc1,-2,-6
CC(=O)NCc1ccc(C(=O)NCC2CCS(=O)(=O)C2)cc1 (stereo not drawn),8,3
Cc1nonc1C(=O)N1CCCC(N2CCN(Cc3ccc4c(c3)OCO4)CC2)C1 (stereo not drawn),4&8,2&5
O=C(Nc1cccc(C(F)(F)F)c1)c1cnccn1,-1,2
O=C1CCCN1CC(=O)N1CCCC(Nc2ccccc2)C1 (stereo not drawn),5,0
COc1cccc(C2=NN(C(=O)CN3CCN(c4ccccc4F)CC3)C(c3ccc(Cl)cc3)C2)c1 (stereo not drawn),15,10
